Source: PubChem
Arbovirus inh: antivirals against arbovirus infection, primary screen, cell-based, full library, 10K replicate subset; actives 0.37% (n = 200,000); arbovirus infection cell-based antiviral screen; AID 1251, 2008; inhibition, % at 10 µM;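 active means inhibition from about 30%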;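 further: bluetongue infection of BSR cells; cell survival read as ATP light after 72 h; 0% = infected wells without compound and 100% = uninfected wells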
YopH inh: YopH tyrosine phosphatase inhibitors, primary screen, biochemical, fluorescence Ex485/Em525 | inhibition, %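 (about 10 µM by stock and volumes)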 | AID 898, 2007 | YopH tyrosine phosphatase [Yersinia enterocolitica] | actives 0.16% (n = 140,000);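 active means inhibition of 50% or more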;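 further: controls were vehicle for no effect and minimum signal wells for full effect; inactives centre near -20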
Mtb growth: M. tuberculosis H37Rv growth inhibitors, H37Rv strain (AID 1626); M. tuberculosis H37Rv growth inhibition; higher % means a stronger effect; inhibition, % at 10 µM, or IC50 in µM where a hit was titrated; actives 0.95% (n = 220,000);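 active means confirmed in a dose series; inconclusive means inhibition above 80% but not taken into the dose series; inactive means below 80% or under 30% at every dose of the series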;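 further: bacteria incubated seven days before Alamar blue readout; 0% = bacteria only wells and 100% = bacteria with antibiotic wells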
Mtb betalactam: beta-lactam sensitization of Mtb H37Rv, H37Rv; AID 434955, 2010; inhibition, % at 25 µM; actives 0.27% (n = 330,000); M. tuberculosis H37Rv growth with meropenem, percent inhibition; hits of this screen are not shown here;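 active means about 74% or more and at least 40 points above the plate without the antibiotic, then above 30% in a dose series; inconclusive means first-round hits that could not be retested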;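 further: growth measured after seven days incubation then overnight dye step; 0% = bacteria only wells and 100% = bacteria with antibiotic; twin plates without the antibiotic show which effects depend on it; some results filed as inactive read as strong as hits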
RecA intein inh: Mtb RecA intein splicing inhibitors, primary screen, biochemical, fluorescence, HTS. AID 2221, 2009. actives 0.75% (n = 290,000). cell-free RecA intein splicing. inhibition, %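 (about 9 µM by stock and volumes)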; in the data active means inhibition above about 30%; inconclusive means no clear call, values can overlap the other calls;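 further: 0% = vehicle wells and 100% = reference inhibitor control wells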
Target sequence (P9WHJ3 whole entry, looked up): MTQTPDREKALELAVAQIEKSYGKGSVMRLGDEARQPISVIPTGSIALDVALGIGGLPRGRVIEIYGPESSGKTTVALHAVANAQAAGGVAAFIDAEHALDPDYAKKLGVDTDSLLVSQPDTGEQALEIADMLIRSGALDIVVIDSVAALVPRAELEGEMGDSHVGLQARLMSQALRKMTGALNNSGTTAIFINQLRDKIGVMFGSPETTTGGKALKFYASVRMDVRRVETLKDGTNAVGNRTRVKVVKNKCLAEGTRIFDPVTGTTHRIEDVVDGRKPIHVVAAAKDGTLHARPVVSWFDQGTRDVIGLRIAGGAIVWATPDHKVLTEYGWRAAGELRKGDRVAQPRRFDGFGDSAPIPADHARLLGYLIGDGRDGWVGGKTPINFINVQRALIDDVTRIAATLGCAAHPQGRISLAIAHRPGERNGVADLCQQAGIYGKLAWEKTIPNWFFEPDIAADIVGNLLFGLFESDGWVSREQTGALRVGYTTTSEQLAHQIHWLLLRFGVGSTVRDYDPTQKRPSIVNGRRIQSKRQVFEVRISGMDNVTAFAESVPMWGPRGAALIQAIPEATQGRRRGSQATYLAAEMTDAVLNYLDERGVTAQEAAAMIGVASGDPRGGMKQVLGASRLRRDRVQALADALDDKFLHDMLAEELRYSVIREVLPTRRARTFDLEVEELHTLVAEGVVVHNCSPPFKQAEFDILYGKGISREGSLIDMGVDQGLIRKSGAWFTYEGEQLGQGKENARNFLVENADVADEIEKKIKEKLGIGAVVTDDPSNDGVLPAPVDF
Arbovirus inh repeat: also measured in Arbovirus inh; calls as there; inhibition, %; measured here: 10K subset replicate screen; many hits read low in the repeat;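 first of two repeat runs on a subset; 0% = infected and 100% = uninfected wells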
* = called active by the depositor; i = inactive; ? = inconclusive; . = no result given. Only part of the results is shown (hit frequency here may not be typical).

SMILES	Arbovirus inh	YopH inh	Mtb growth	Mtb betalactam	RecA intein inh	others
O=C(COC(=O)c1ccccc1[N+](=O)[O-])Nc1cc(S(=O)(=O)N2CCOCC2)ccc1N1CCCC1	7	.	2%	-7	-0.9
CC(=O)c1ccccc1NCC(=O)Nc1ccc(C)cc1	-10	.	1%	-14	-12
CC(NS(=O)(=O)c1cccc(Cl)c1)C(=O)Nc1ccc(-c2nc3ccccc3s2)cc1 (stereo not drawn)	-5	-11	-9%	-5	-4.6
CCCn1cc(C(=O)OCC)c(=O)c2cc(F)c(F)cc21	.	.	8%	1	-2.6
O=C(Cn1c(C(F)(F)F)nc2ccccc21)N1CCCC1	-5	-6	9%	3	1.6
Cc1ccc(C)c(N2CCN(c3nnnn3-c3ccccc3)CC2)c1	-21	8	11%	3	12
NC(=O)CSc1nc(O)cc(=O)n1-c1ccccc1	3	-22	1%	-5	0.4
N#Cc1c(NC(=O)c2cnn3cccnc23)sc2c1CCCC2	-4	.	3%	-6	-2.6
Cc1cccc(NC(=O)CSc2nccn2C)c1	.	-2	0%	-14	0.2
O=C(Nc1nc(-c2ccccc2)ns1)c1ccncc1	.	.	1%	-6	0.4
COc1ccc(C(=O)N/C(=C/c2cccnc2)C(=O)N2CCN(C)CC2)cc1OC	.	.	.	3	0.1
CC(=O)Cn1c(CN2CCCC2)nc2ccccc2c1=O	8	.	-4%	0	.
COCCCNC(=S)N/N=C/c1ccc2c(c1)OCO2	.	.	-9%	-6	0.5
CCC(C)N(C(=O)CSc1nc2ccc(OC)cc2[nH]1)C1CCS(=O)(=O)C1 (stereo not drawn)	.	.	.	-2	-1.0
CCCCCCOc1ccc(/C(C)=N/NC2=NCCN2)cc1[N+](=O)[O-]	-22	.	?	86	8.2
CN(C)CCNS(=O)(=O)c1ccc(Cl)cc1	2	6	-4%	-9	-1.3
COc1ccc(Br)cc1C(=O)Nc1ccccc1N1CCN(C(=O)c2ccccc2)CC1	1	.	17µM*	60	9.0
Cc1ccc(C(=O)C2CN3CCC2CC3)cc1 (stereo not drawn)	-3	-26	-3%	-10	-4.0
CC(C)NC(=NCc1ccc(Cl)cc1Cl)Nc1ccccc1	.	.	.	-8	-2.5
Oc1cccc(-c2nc3c4c(ncn3n2)-c2ccccc2CC42CCCC2)c1	-35	-45	6%	73	4.7

Ordered by heavy-atom count (rising): 3 of the compounds above.
SMILES	Arbovirus inh	YopH inh	Mtb growth	Mtb betalactam	RecA intein inh	others
Cc1cccc(NC(=O)CSc2nccn2C)c1	.	-2	0%	-14	0.2
NC(=O)CSc1nc(O)cc(=O)n1-c1ccccc1	3	-22	1%	-5	0.4
O=C(Nc1nc(-c2ccccc2)ns1)c1ccncc1	.	.	1%	-6	0.4

Continued:
SMILES	Arbovirus inh	YopH inh	Mtb growth	Mtb betalactam	RecA intein inh	others
Cc1ccccc1NC(=O)Cc1cccc(C(F)(F)F)c1	4	.	0%	4	-1.8
COC(=O)Cn1c(O)c(N=NC(=O)CNC(=O)c2ccncc2)c2ccccc21	.	.	.	-2	1.9
COc1ccc(NC(=O)/C(Cl)=C(/Cl)S(=O)Cc2ccc(Cl)cc2)cn1 (stereo not drawn)	-34	.	?	.	.
O=C(CS(=O)(=O)c1ccccc1)Nc1cccnc1	-2	.	-2%	0	1.1
CC1CCc2[nH]nc(C(=O)O)c2C1 (stereo not drawn)	-2	-5	1%	0	-1.9
COc1ccc(C(=O)COC(=O)c2nn(C)cc2Cl)cc1	.	.	.	3	-2.2
Cc1ccc(Nc2nc(N)c([N+](=O)[O-])c(N3CCOCC3)n2)cc1C	51*	-38	5%	11	5.5
C/C(CC(=O)NC1CCCC1)=N\NC(=O)Cc1cccs1	1	-25	5%	-5	-0.9
COc1ccc(C)cc1NC(=O)Cc1c(C(=O)O)n(C)c2ccccc12	.	.	.	-1	0.0
Cn1c(=O)n(Cc2ccc(F)cc2)c(=O)c2c1nc1n2CCN1Cc1ccco1	5	.	8%	-2	-0.6
COc1ccc2[nH]cc(CCNS(=O)(=O)c3ccc(NC(C)=O)cc3)c2c1	-5	.	-1%	-11	6.1
Cc1ccccc1N(CC(=O)NC1CCCC1)C(=O)c1oc(C(C)(C)C)cc1C	4	-30	-2%	-6	-1.9
CCN1CCN(C(=O)/C=C/c2ccccc2[N+](=O)[O-])CC1	3	.	-6%	-1	0.4
Cc1sc2nc(CN3CCOCC3)nc(NS(=O)(=O)c3ccc4c(c3)OCCO4)c2c1C	3	-48	-3%	0	18
COc1ccc(-n2c(=O)c3c4c(sc3n(Cc3cccc(F)c3)c2=O)CN(C(C)=O)CC4)c(OC)c1	-8	.	2%	-8	3.0
CC(CCc1ccco1)NC(=O)CCc1nnc2ccc(NCc3ccccc3Cl)nn12 (stereo not drawn)	.	.	.	-1	0.9
CCc1ccc(C2CC(=O)N(c3ccc(F)cc3)C3=C2C(=O)OC3)cc1 (stereo not drawn)	11	.	-3%	-2	-0.6
O=C(Nc1nc2n(n1)C(c1ccc(F)cc1)CC(c1ccccc1)N2)c1ccco1 (stereo not drawn)	.	.	-5%	0	4.7
CCCC(=O)O[C@H]1C[C@@H](C)N(C(=O)c2ccccc2)c2ccc(C)cc21	-2	-20	-12%	2	16
Cc1ccc(NC(=O)c2cnn(C)c2)cc1[N+](=O)[O-]	-5	1	4%	4	1.3
Cc1cc(C)cc(NC(=O)CSc2nc(N)c(NC(=O)c3ccc(Br)o3)c(=O)[nH]2)c1	.	.	.	-11	0.6
O=C(CCN=C1NS(=O)(=O)c2ccccc21)OCC(=O)c1ccccc1Cl	.	.	.	-7	-1.8
O=P1(Oc2ccccc2)CC=C[C@H](COCc2ccccc2)O1 (stereo partly drawn)	.	.	-6%	-18	1.9
Cc1ccc(OCCCC(=O)Nc2ccccc2C(F)(F)F)cc1	-5	-36	4%	-5	3.9
COC(=O)Cn1c(=N)n(CCN2CCCCC2)c2ccccc21	7	-35	-1%	5	-1.1
CCOc1ccc(NC(=O)/C(=C\c2ccc(OC(C)=O)c(OC)c2)NC(C)=O)cc1	5	-29	1%	5	-3.5
NS(=O)(=O)c1ccc(CCNS(=O)(=O)c2cccc3cccnc23)cc1	.	.	.	10	4.2
COCC1CCN(C(=O)c2cc(COc3cc(C)c(Cl)c(C)c3)on2)C1 (stereo not drawn)	.	.	.	2	2.0
O=S(=O)(Nc1ccc(-c2ccc3nncn3n2)cc1)c1cccs1	.	.	.	5	-1.6
Nc1nc(NCC(=O)O)nc(NCc2ccccc2)c1[N+](=O)[O-]	.	.	.	-14	0.4
O=C(CCOc1ccccc1)Nc1ccc(S(=O)(=O)N2CCCC2)cc1	1	-38	11%	-2	1.9
O=C(CCSc1ccccc1)Nc1ccccc1C(=O)N1CCCC1	-5	-23	1%	3	-1.1
O=C(COC(=O)Cn1cnc2ccccc21)Nc1cc2c(cc1Cl)C(=O)c1ccccc1C2=O	-14	.	11%	26	5.9
C=CCn1c(NCc2ccc(N(C)C)cc2)nc2ccccc21	3	-22	.	-9	-2.8
O=C(O)c1ccc(NC2=Nc3cccc4cccc2c34)cc1	.	.	-2%	.	-11
Cc1ccc(S(=O)(=O)Nc2ccc(=O)n(Cc3ccc(Cl)c(Cl)c3)c2)cc1	-8	-16	-6%	-4	.
COc1ccc2c(c1)c(=O)c(C(=O)c1ccc(C)cc1)cn2CC(=O)Nc1ccc(F)cc1	-4	-26	.	-7	1.1
Cc1nc2scc(C)n2c(=O)c1S(=O)(=O)NCCc1ccccc1	.	.	.	4	0.4
Cc1[nH][nH]c(=O)c1C(c1ccc(-c2ccccc2C(=O)O)o1)c1c(C)[nH][nH]c1=O	-3	.	2%	-3	96*
N#Cc1ccc(NC(=O)Nc2cccc(C#N)c2)cc1	.	.	4%	9	1.0
C=CCNC(=O)c1ccc(CN2CCC(Cc3ccccc3)CC2)cc1	.	.	.	-6	0.7
COC(=O)c1ccc2c(=O)n(CCCCCC(=O)N3CCN(c4ccccc4)CC3)c(=O)[nH]c2c1	14	-39	-3%	51	0.1
Nc1cccc2c1C(=O)N(CCOc1ccccc1F)C2=O	.	.	.	7	i
Oc1ccccc1C=NC1=NN(c2cccc(C(F)(F)F)c2)CC1	-18	4	53%	97	-2.4
COC(=O)CSc1nc2ccccc2o1	1	-4	4%	55	0.4	Arbovirus inh repeat=3
O=C(COC(=O)c1ccc(Cl)c(S(=O)(=O)N2CCN(c3ccc(F)cc3)CC2)c1)Nc1cccc(Cl)c1	7	-31	51%	-4	2.7
O=C(NCc1ccccc1)C1CCN(S(=O)(=O)c2cc([N+](=O)[O-])ccc2Cl)CC1	-6	-14	48%	-5	0.2
O=C(COc1ccccc1)Nc1ccc2c(c1)Cc1cc(NC(=O)COc3ccccc3)ccc1-2	-18	-39	-3%	1	-0.1
CCOC(=O)c1c(NC(=O)CN2C(=O)NC3(CCCCC3)C2=O)sc(C)c1-c1ccc(C)cc1	14	1	4%	12	-6.2
O=C(Nc1ccc2oc(-c3ccc(F)cc3)nc2c1)c1ccccc1F	-3	-19	-6%	-12	1.0

Additional records:
SMILES	Arbovirus inh	YopH inh	Mtb growth	Mtb betalactam	RecA intein inh	others
Cc1c(NC(=O)Cn2[nH]c(=O)c3ccccc3c2=O)c(=O)n(-c2ccccc2)n1C	-1	13	-6%	-6	0.7
CCC(C)n1c(O)c(C=NCCN2CCOCC2)c(=O)[nH]c1=S (stereo not drawn)	.	.	2%	15	1.9
Cc1ccc2nc(C)c(C(=O)N/N=C/c3ccccc3[N+](=O)[O-])cc2c1	4	-26	-3%	-2	-2.6
CCCCCCNC(=O)CCc1nc2cccnc2n1Cc1ccc(OC)cc1	.	.	.	1	-0.2
Cc1occc1-c1nnc(SCC(N)=O)n1Cc1ccccc1	-4	-25	-8%	-8	-4.1
COc1ccc(NC(=O)CSCC(=O)N=c2sccn2C)cc1	.	.	.	0	-1.7
CCN(CC)CCCN(C(=O)c1cccs1)c1nc(-c2ccc(OC)cc2)cs1	-41	-2	1%	6	11
COC(=O)c1cccc(NC(=S)N2CCCCC2)c1	-2	.	-1%	-1	2.6
Cc1ccc(NC(=S)NCc2cccs2)cc1	5	-20	1%	-5	-1.6
CCN(CC)CCCNC(=O)c1cc(Sc2nnc(C)s2)nc2ccccc12	2	-24	-1%	1	1.7
CC(=O)OC1CC2(C)/C(=N\O)CCC2C2CCc3cc(O)ccc3C12 (stereo not drawn)	.	.	.	1	-1.4
CCOC(=O)C1CCN(C(=O)c2ccccc2NS(=O)(=O)c2ccc(F)c(F)c2)CC1	5	-8	-5%	0	0.9
CCCC(=O)Nc1cc(=O)[nH]c2ncnn12	-2	-40	2%	-2	-0.2
O=C(/C=C/c1ccccc1Cl)NCCc1ccccc1	-3	-24	3%	-2	3.3
CCCCN(C(=O)CSc1nnc(-c2ccccc2OC)n1C)c1c(N)n(Cc2ccccc2)c(=O)[nH]c1=O	4	4	-2%	-8	-0.1
Cc1ccccc1NC(=O)Cc1nnc(SCC(=O)N2CCOCC2)n1C	.	.	.	5	1.2
O=c1cc(-c2ccc(O)c(O)c2)oc2cc(O)c(C3OC(CO)C(O)C(O)C3O)c(O)c12 (stereo not drawn)	2	.	-12%	-9	.

As a working copy, 12 of the compounds above.
SMILES	Arbovirus inh	YopH inh	Mtb growth	Mtb betalactam	RecA intein inh	others
Cc1ccc2nc(C)c(C(=O)N/N=C/c3ccccc3[N+](=O)[O-])cc2c1	4	-26	-3%	-2	-2.6
CCCCCCNC(=O)CCc1nc2cccnc2n1Cc1ccc(OC)cc1	.	.	.	1	-0.2
Cc1occc1-c1nnc(SCC(N)=O)n1Cc1ccccc1	-4	-25	-8%	-8	-4.1
COc1ccc(NC(=O)CSCC(=O)N=c2sccn2C)cc1	.	.	.	0	-1.7
CCN(CC)CCCN(C(=O)c1cccs1)c1nc(-c2ccc(OC)cc2)cs1	-41	-2	1%	6	11
COC(=O)c1cccc(NC(=S)N2CCCCC2)c1	-2	.	-1%	-1	2.6
Cc1ccc(NC(=S)NCc2cccs2)cc1	5	-20	1%	-5	-1.6
CCN(CC)CCCNC(=O)c1cc(Sc2nnc(C)s2)nc2ccccc12	2	-24	-1%	1	1.7
CC(=O)OC1CC2(C)/C(=N\O)CCC2C2CCc3cc(O)ccc3C12 (stereo not drawn)	.	.	.	1	-1.4
CCOC(=O)C1CCN(C(=O)c2ccccc2NS(=O)(=O)c2ccc(F)c(F)c2)CC1	5	-8	-5%	0	0.9
CCCC(=O)Nc1cc(=O)[nH]c2ncnn12	-2	-40	2%	-2	-0.2
O=C(/C=C/c1ccccc1Cl)NCCc1ccccc1	-3	-24	3%	-2	3.3
